Screening results as filed in PubChem.
HIV Env fusion – inhibitors of HIV-1 Env-driven cell-cell fusion, primary screen, HeLa-JRFL effector, CEM21 target cells, luciferase; inhibition, % at 12.3 µM; 360,000 tested, 1.1% active;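 active means mean replicate inhibition score of at least 50 and every replicate individually at or above 50; inconclusive means only one of the two criteria met; inactive means mean below 50 and not all replicates reaching 50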;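 further: 0% = plate neutral controls and 100% = maraviroc near 300 nM; one replicate is shown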
* = called active by the depositor; ? = inconclusive; [ ] = remark or other dose. A portion of the library; rates above refer to the full screens.

SMILES	HIV Env fusion
C[C@H](CO)N1C[C@H](C)[C@@H](CN(C)C(=O)[C@H](Cc2ccccc2)N(C)C)OCc2ccccc2-c2ccccc2C1=O	7[16.7 µM]
C[C@H]1CN([C@@H](C)CO)C(=O)c2cc(NC(=O)CCCN(C)C)ccc2O[C@H]1CN(C)S(C)(=O)=O	11[16.7 µM]
CC(C)NC(=O)Nc1ccc2c(c1)C(=O)N([C@@H](C)CO)C[C@H](C)[C@H](CN(C)C(=O)NC(C)C)OCCCC[C@@H](C)O2	-6[16.7 µM]
CN1[C@@H]2c3ccc(/C=C/c4ccccc4)c(=O)n3C[C@H]1[C@H](CO)[C@H]2C(=O)NC1CCCCC1	-8[16.7 µM]
C[C@@H]1ON(C)[C@H]2C[C@H]3c4[nH]c5c(-c6ccc(F)cc6)cccc5c4CCN3C(=O)[C@@H]12	7
COC(=O)C1=C(C)N(Cc2ccc(C(F)(F)F)cc2)C(=NCc2ccccc2C(F)(F)F)NC1c1ccccc1C(F)(F)F (stereo unspecified)	-28
CCCNC(=O)C[C@@H]1CC[C@H]2[C@@H](COC[C@H](O)CN2Cc2ccccc2F)O1	5[16.7 µM]
CCC(=O)N1C[C@H](O)COC[C@@H]2O[C@@H](CC(=O)NC)CC[C@H]21	3[16.7 µM]
Cc1ccc(S(=O)(=O)Nc2ccc3c(c2)C(=O)N([C@H](C)CO)C[C@@H](C)[C@H](CN(C)C(=O)c2ccncc2)OCCCC[C@@H](C)O3)cc1	-28[16.7 µM]
C[C@@H]1CCCCO[C@@H](CN(C)C(=O)c2ccccc2)[C@@H](C)CN([C@H](C)CO)C(=O)c2cc(NC(=O)c3ccccc3)ccc2O1	-6[16.7 µM]
COc1ccc2c3c([nH]c2c1)[C@H](CO)N(C(=O)NC(C)C)CC31CN(C(=O)NC(C)C)C1	-21[16.7 µM]
O=S1(=O)CCSC[C@@H](CN2CCOCC2)N1	-15
Nc1[nH]c(C(=O)c2ccccc2)c(-c2cccnc2)c1C(=O)c1ccccc1	-37
CCOC(=O)Cc1csc2nc(-c3ccccc3)cn12	-23
CO[C@H]1CC[C@@H]2CCOc3c(C#N)cccc3C(=O)N(C)CCCC(=O)N(C)C[C@@H]1O2	15[16.7 µM]
C[C@@H]1CN([C@H](C)CO)C(=O)c2c(c3ccccc3n2C)-c2ccccc2CO[C@H]1CN(C)C(=O)[C@@H](Cc1ccccc1)N(C)C	-56[16.7 µM]
O[C@@H](Cc1ccccc1)[C@@H](/C=C/c1ccccc1)NCCc1ccccc1	-43
COC(=O)C[C@H]1CC[C@@H]2[C@H](COC[C@@H](O)CN2C(=O)Nc2ccccc2OC)O1	-22[16.7 µM]
CCCn1cc(C(=O)Nc2ccc(Oc3cccnc3)cc2)c2ccccc21	4
O=C(C[C@H]1C[C@H]2c3cc(NC(=O)Cc4ccncc4)ccc3O[C@H]2[C@H](CO)O1)NCCc1ccccc1	-1[16.7 µM]
C[C@@H]1CCCCO[C@H](CN(C)C)[C@@H](C)CN([C@@H](C)CO)C(=O)c2cc(NC(=O)c3ccccc3)ccc2O1	-4[16.7 µM]
COC(=O)[C@H](Cc1ccccc1)N1CC=CS1(=O)=O	30
COc1ccc(N2C(=O)c3n[nH]c(C(C)C)c3C2c2ccc(C)cc2)cc1 (stereo unspecified)	2
COc1ccc2c(c1)[C@@]1(OCCC=C[C@H]1C)C(=O)N2C/C=C(\C)CCC=C(C)C	8
COCc1[nH]nc2c1C(c1ccc(C)cc1)N(Cc1ccccc1)C2=O (stereo unspecified)	5
CO[C@@H]1CN(C)C(=O)c2ccc(NC(=O)Nc3cc(F)ccc3F)cc2OC[C@H](C)N(C(=O)c2cnccn2)C[C@H]1C	22[16.7 µM]
C[C@H](CO)N1C[C@H](C)[C@H](CN(C)CC2CCOCC2)Oc2cc(-c3cccnc3)ccc2S1(=O)=O	-13[16.7 µM]
O=C(Nc1ccc2c(c1)[C@H]1C[C@H](CC(=O)N3CCc4ccccc4C3)O[C@H](CO)[C@H]1O2)c1cccnc1	8[16.7 µM]
Cc1noc(C)c1NC(=O)N(C)C[C@H]1OCc2ccccc2-c2ccccc2C(=O)N([C@H](C)CO)C[C@H]1C	20[16.7 µM]
CN(C)CC#Cc1cccc(-c2nc(C(=O)NCCCN3CCOCC3)cc3c2[C@H](CCO)N(S(=O)C(C)(C)C)C3)c1 (stereo partly specified)	2[16.7 µM]

Next section, overlapping the part above by 4 compounds.
SMILES	HIV Env fusion
C[C@H](CO)N1C[C@H](C)[C@H](CN(C)CC2CCOCC2)Oc2cc(-c3cccnc3)ccc2S1(=O)=O	-13[16.7 µM]
O=C(Nc1ccc2c(c1)[C@H]1C[C@H](CC(=O)N3CCc4ccccc4C3)O[C@H](CO)[C@H]1O2)c1cccnc1	8[16.7 µM]
Cc1noc(C)c1NC(=O)N(C)C[C@H]1OCc2ccccc2-c2ccccc2C(=O)N([C@H](C)CO)C[C@H]1C	20[16.7 µM]
CN(C)CC#Cc1cccc(-c2nc(C(=O)NCCCN3CCOCC3)cc3c2[C@H](CCO)N(S(=O)C(C)(C)C)C3)c1 (stereo partly specified)	2[16.7 µM]
Cc1c(C2(O)CCCCC2)[nH]c2ccccc12	5
C[C@@H]1CN([C@H](C)CO)C(=O)c2ccccc2-c2ccccc2CO[C@H]1CN(C)C(=O)CCC(F)(F)F	-2[16.7 µM]
CO[C@@H]1CN(C)C(=O)c2ccc(NS(C)(=O)=O)cc2OC[C@@H](C)N(Cc2ccccn2)C[C@H]1C	-5[16.7 µM]
CO[C@@H]1CN(C)C(=O)c2ccc(NC(=O)CN(C)C)cc2OC[C@@H](C)N(C(=O)C2CCOCC2)C[C@H]1C	2[16.7 µM]
COc1ccccc1CN1C[C@H](C)[C@@H](OC)CN(C)C(=O)c2cc(NC(C)=O)ccc2OC[C@@H]1C	-11[16.7 µM]
O=C(CC1CCCC1)N[C@H](C(=O)N1CCC[C@H]1C(=O)NCCc1ccccc1Cl)c1ccccc1	32
COc1ccccc1CNC(=O)C[C@H]1C[C@@H]2c3cc(NC(=O)CN(C)C)ccc3O[C@@H]2[C@H](CO)O1	-290[16.7 µM]
O=C(C[C@@H]1C[C@@H]2c3cc(NC(=O)Nc4ccccc4F)ccc3O[C@@H]2[C@H](CO)O1)NC1CCCCC1	4[16.7 µM]
CCCC(=O)Nc1ccc2c(c1)OC[C@@H](C)N(C(=O)CN(C)C)C[C@H](C)[C@H](OC)CN(C)C2=O	-5[16.7 µM]
C[C@@H]1CN([C@@H](C)CO)C(=O)c2cc(NS(=O)(=O)c3ccc(Cl)cc3)ccc2O[C@@H](C)CCCCO[C@H]1CN(C)C(=O)CCC(F)(F)F	-63[16.7 µM]
CN(C)C(=O)c1cccc(-c2cccc(-c3nc(C(=O)N4CCCCC4)cc4c3[C@@H](CCO)N([S@](=O)C(C)(C)C)C4)c2)c1	5[16.7 µM]
CS(=O)(=O)Nc1ccc2c(c1)[C@@H]1C[C@H](CC(=O)NCc3ccccn3)O[C@H](CO)[C@@H]1O2	11[16.7 µM]
CC(C)C(C(=O)NCc1ccccc1)N1CCN(CCN2CCOCC2)CC1 (stereo unspecified)	-7
COc1ccc(-c2cccc(-c3nc(C(=O)NCC(F)(F)F)cc4c3[C@H](CCO)N([S@@](=O)C(C)(C)C)C4)c2)cc1	0[16.7 µM]
CCCCCCCCN1C(=O)[C@@H](CC(=O)N2CCCC2)C[C@@]2(C(=O)OC)C1=C[C@H](C1CCCC1)O[C@@H]2C	19
C[C@@H]1ON(C)[C@H]2C[C@H]3c4[nH]c5c(-c6ccc7c(c6)OCO7)cccc5c4CCN3C(=O)[C@@H]12	-15
C[C@@H]1CN([C@H](C)CO)C(=O)c2cc(NC(=O)CCN3CCOCC3)ccc2O[C@@H]1CN(C)Cc1ccc(-c2ccccc2)cc1	-2[16.7 µM]
CCCC(=O)Nc1ccc2c(c1)OC[C@H](C)NC[C@H](C)[C@H](OC)CN(C)C2=O	4[16.7 µM]
C[C@@H]1CN([C@@H](C)CO)C(=O)c2ccccc2-c2ccccc2CO[C@H]1CN(C)S(=O)(=O)c1ccc(Cl)cc1	18[16.7 µM]
CN1C(=O)c2cc(NS(C)(=O)=O)ccc2OC[C@H]2O[C@@H](CC(=O)NC3CCCCC3)CC[C@H]21	-7[16.7 µM]
CCCN(C)C[C@H]1OCCCC[C@@H](C)Oc2ccc(NC(=O)Cc3ccccc3)cc2C(=O)N([C@@H](C)CO)C[C@H]1C	-8[16.7 µM]
C[C@H](CO)N1C[C@H](C)[C@@H](CN(C)C)Oc2ccc(NC(=O)C3CC3)cc2C1=O	-14[16.7 µM]
COc1cccc(NC(=O)N[C@@H]2CC[C@H](CC(=O)N3CCCCC3)O[C@@H]2CO)c1	5[16.7 µM]
CN1CCN(C(=O)[C@@H]2[C@@H](CO)[C@@H]3Cn4c(ccc(C5=CCCCC5)c4=O)[C@H]2N3S(C)(=O)=O)CC1	-1[16.7 µM]
CC(C)NC(=O)N(C)C[C@@H]1OCCCC[C@H](C)Oc2ccc(NC(=O)CCC(F)(F)F)cc2C(=O)N([C@H](C)CO)C[C@@H]1C	-20[16.7 µM]
CN1C(=O)c2cc(NC(=O)c3cnccn3)ccc2OC[C@H]2O[C@H](CC(=O)NCC3CCCCC3)CC[C@H]21	-12[16.7 µM]
CCCNC(=O)Nc1ccc2c(c1)OC[C@@H](C)N(C(C)=O)C[C@H](C)[C@H](OC)CN(C)C2=O	11[16.7 µM]
O=C(Nc1cc(F)ccc1F)N[C@@H]1CC[C@H](CC(=O)N2CCc3ccccc3C2)O[C@H]1CO	14[16.7 µM]
Cc1ccc(S(=O)(=O)N[C@@H]2CC[C@@H](CCn3cc(-c4cccnc4)nn3)O[C@H]2CO)cc1	-7[16.7 µM]
C[C@@H]1CN([C@@H](C)CO)C(=O)c2cc(NS(=O)(=O)c3ccccc3)ccc2O[C@H]1CN(C)C(=O)Nc1ccc(F)cc1	-2[16.7 µM]

Looked up one by one from the entries so far:
SMILES	HIV Env fusion
CCCNC(=O)Nc1ccc2c(c1)OC[C@@H](C)N(C(C)=O)C[C@H](C)[C@H](OC)CN(C)C2=O	11[16.7 µM]
COc1cccc(NC(=O)N[C@@H]2CC[C@H](CC(=O)N3CCCCC3)O[C@@H]2CO)c1	5[16.7 µM]
C[C@H](CO)N1C[C@H](C)[C@@H](CN(C)C)Oc2ccc(NC(=O)C3CC3)cc2C1=O	-14[16.7 µM]
CN1C(=O)c2cc(NC(=O)c3cnccn3)ccc2OC[C@H]2O[C@H](CC(=O)NCC3CCCCC3)CC[C@H]21	-12[16.7 µM]
CCCN(C)C[C@H]1OCCCC[C@@H](C)Oc2ccc(NC(=O)Cc3ccccc3)cc2C(=O)N([C@@H](C)CO)C[C@H]1C	-8[16.7 µM]
Cc1ccc(S(=O)(=O)N[C@@H]2CC[C@@H](CCn3cc(-c4cccnc4)nn3)O[C@H]2CO)cc1	-7[16.7 µM]

Going on with the list.
SMILES	HIV Env fusion
O=C(C[C@H]1C=C[C@@H](NC(=O)c2ccccn2)[C@@H](CO)O1)NCc1cc(F)cc(F)c1	-7[16.7 µM]
COC(=O)[C@]12C[C@H](CC(=O)NCC34CC5CC(CC(C5)C3)C4)C(=O)N(Cc3ccc4c(c3)OCO4)C1=C[C@H](COCc1ccccc1)O[C@@H]2C	?
C[C@@H]1CN([C@@H](C)CO)C(=O)Cc2cc(NC(=O)Cc3cn(C)c4ccccc34)ccc2O[C@@H]1CN(C)Cc1ccc(-c2ccccc2)cc1	-326[16.7 µM]
C[C@H]1CN([C@@H](C)CO)C(=O)Cc2cc(NC(=O)Nc3cccc4ccccc34)ccc2O[C@H]1CN(C)S(C)(=O)=O	-8[16.7 µM]
COC(=O)c1cc2c(c3c4cc(F)ccc4n(S(=O)(=O)c4cccc(C)c4)c13)C(=O)N(c1ccc(OC)cc1)C2	0
Cc1ccccc1C(=O)N(C)[C@H]1C[C@H]2c3[nH]c4c(-c5ccccc5)cccc4c3CCN2C(=O)[C@H]1[C@H](C)O	-74
C[C@H](CO)N1C[C@H](C)[C@H](CN(C)C(=O)CN(C)C)Oc2ncc(C#CCC3CCCC3)cc2C1=O	16[16.7 µM]
C[C@H](CO)N1C[C@H](C)[C@H](CN(C)C(=O)Nc2ccc(F)cc2)OCc2ccccc2-c2ccccc2C1=O	6[16.7 µM]
O=C(C[C@@H]1C[C@H]2c3cc(NS(=O)(=O)c4ccc(F)cc4)ccc3O[C@H]2[C@H](CO)O1)NCCN1CCCCC1	-2[16.7 µM]
Cc1ccc(S(=O)(=O)N(C)C[C@H]2Oc3ccc(NC(=O)Nc4cccc5ccccc45)cc3C(=O)N([C@H](C)CO)C[C@@H]2C)cc1	66*[16.7 µM]

As entered above:
HIV Env fusion result of `CCOC(=O)Cc1csc2nc(-c3ccccc3)cn12` stands at -23
HIV Env fusion result of `O=C(C[C@H]1C[C@H]2c3cc(NC(=O)Cc4ccncc4)ccc3O[C@H]2[C@H](CO)O1)NCCc1ccccc1` stands at -1[16.7 µM]

The results go on.
SMILES	HIV Env fusion
C[C@H]1[C@@H]2C[C@@]3(O[C@H](c4ccc(C(F)(F)F)cc4)N=C3C[C@@H]1c1ccccc1)N(Cc1ccncc1)C2=O	-17
C[C@H](CO)N1C[C@H](C)[C@H](CN(C)Cc2cccnc2)OCc2ccccc2-c2ccccc2C1=O	10[16.7 µM]
O=C(CN1CCOCC1)N[C@@H]1CC[C@@H](CCNC(=O)C2CCC2)O[C@H]1CO	2[16.7 µM]
O=C(O)Cn1cnc2c(NCc3ccccc3)ncnc21	-118
Cc1ccc(S(=O)(=O)N(C)C[C@@H]2Oc3ccc(NS(=O)(=O)c4ccc(Cl)cc4)cc3C(=O)N([C@H](C)CO)C[C@@H]2C)cc1	4[16.7 µM]
COc1ccc2c3c([nH]c2c1)[C@@H](CO)N(C(=O)Nc1ccc(F)cc1)CC31CCN(S(=O)(=O)c2cccc(F)c2)CC1	48[16.7 µM]
C[C@@H]1CN([C@H](C)CO)C(=O)Cc2cc(NC(=O)CCC(F)(F)F)ccc2O[C@@H]1CN(C)Cc1ccncc1	9[16.7 µM]
O=C(C[C@H]1C=C[C@H](NC(=O)Cc2cccnc2)[C@@H](CO)O1)Nc1ccccc1	-79[16.7 µM]
C[C@H]1CN([C@@H](C)CO)C(=O)c2c(c3ccccc3n2C)-c2ccccc2CO[C@H]1CN(C)C(=O)CCC(F)(F)F	63*[16.7 µM]
CCCCCCCCN1C(=O)[C@@H](CC(=O)N2CCN(C(=O)C3CC3)CC2)C[C@@]2(C(=O)OC)C1=C[C@H](C1CCCC1)O[C@@H]2C	?
